Screening data (PubChem BioAssay)
ClpP mod: qHTS Assay for Activators of ClpP; ATP-dependent Clp protease proteolytic subunit (Bacillus subtilis (strain 168)), P80244; purified B. subtilis ClpP, FRET peptide cleavage, 20 min; Potency, µM (top dose mostly 57.5 µM), inactives show at the highest dose activity change, negative = active; 340,000 tested, 1.9% active; active = well fitted falling curve with a large enough effect; inconclusive = small, poorly fitted or top-dose-only effect; inactive = no such curve, though single readings can be large or run the other way; note: potency is the fitted concentration of half-maximal effect; the source files actives as falling curves though it sought activators and does not explain the sign; nearly all actives have a fitted effect of over 65% in size; many hits overshoot -100%
Target sequence (P80244 whole entry, looked up): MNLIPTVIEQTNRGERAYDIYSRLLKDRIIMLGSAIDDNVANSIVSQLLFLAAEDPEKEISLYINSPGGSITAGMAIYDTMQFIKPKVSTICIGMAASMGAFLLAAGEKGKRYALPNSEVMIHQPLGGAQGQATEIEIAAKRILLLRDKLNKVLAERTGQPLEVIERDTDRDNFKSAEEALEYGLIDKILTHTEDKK
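Buffer: 100 mM Tris/HCl pH8, 100 mM KCl, 0.05% low protease BSA, 2.5% glycerol, 0.01% Tween-20. ClpP 10 microg/mL final; 20 min RT; delta FRET normalized to ADEP and DMSO controls.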
TRPV1 PAM: HTS Assay for Compounds that Act as Potentiators of the Vanilloid Receptor 1 | Transient receptor potential cation channel subfamily V member 1 (Homo sapiens), Q8NER1 | TRPV1-expressing cells, Fluo-8 calcium influx, capsaicin EC20 potentiation; host cell line not named in the record; control for the full effect not named in the record | potentiation, % at 8.33 µM | 320,000 tested, 0.02% active; active means potentiation above 80%; inconclusive means 30% to 80%; inactive means below 30%; note: 0% is about no effect
Target sequence (Q8NER1 whole entry, looked up): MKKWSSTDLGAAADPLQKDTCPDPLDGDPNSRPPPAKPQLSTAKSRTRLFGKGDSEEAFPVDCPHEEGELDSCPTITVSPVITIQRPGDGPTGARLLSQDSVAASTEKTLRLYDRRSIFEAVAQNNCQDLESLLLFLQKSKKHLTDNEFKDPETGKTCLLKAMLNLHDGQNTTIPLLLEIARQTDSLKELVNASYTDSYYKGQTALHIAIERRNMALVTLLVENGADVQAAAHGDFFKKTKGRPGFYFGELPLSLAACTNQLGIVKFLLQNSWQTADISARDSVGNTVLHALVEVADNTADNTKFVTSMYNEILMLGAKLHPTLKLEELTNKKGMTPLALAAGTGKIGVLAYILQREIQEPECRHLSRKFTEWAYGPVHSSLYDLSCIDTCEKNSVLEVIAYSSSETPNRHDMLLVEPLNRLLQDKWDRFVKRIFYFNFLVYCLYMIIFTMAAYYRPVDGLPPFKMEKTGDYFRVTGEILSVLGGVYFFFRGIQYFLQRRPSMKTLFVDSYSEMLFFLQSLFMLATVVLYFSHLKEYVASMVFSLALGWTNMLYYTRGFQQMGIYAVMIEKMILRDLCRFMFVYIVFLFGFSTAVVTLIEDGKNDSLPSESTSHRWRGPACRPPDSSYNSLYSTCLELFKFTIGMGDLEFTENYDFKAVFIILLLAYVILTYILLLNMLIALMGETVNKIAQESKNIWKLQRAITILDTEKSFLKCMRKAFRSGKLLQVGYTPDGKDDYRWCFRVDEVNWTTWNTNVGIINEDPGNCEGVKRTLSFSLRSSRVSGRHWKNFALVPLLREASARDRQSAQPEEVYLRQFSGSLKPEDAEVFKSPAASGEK
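TRPV1-expressing cells were cultured overnight at 35.5C and loaded with Fluo-8 calcium dye for 40 to 90 min at room temperature. After a 10 s baseline, compound was added and calcium influx was read kinetically for 3 min (ex 480/em 520 nm).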
Sfp inh: qHTS Assay for Inhibitors of Bacillus subtilis Sfp phosphopantetheinyl transferase (PPTase). 4'-phosphopantetheinyl transferase ffp (Bacillus subtilis), Q9F4F7. Biochemical Sfp PPTase activity, qHTS. Potency, µM, for the others: max response, negative = inhibition, hits mostly inhibitors. 310,000 tested, 3.5% active; active = well fitted inhibition curve with a large enough effect; inconclusive = small, poorly fitted or top-dose-only effect, or another doubt; inactive = no such curve, though single readings can be large or run the other way;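 note: the enzyme is Sfp with the accession as filed and its product quenches rhodamine fluorescence; potency is the fitted concentration of half-maximal effect; 0% = enzyme reaction without inhibitor and -100% = no enzyme wells; top concentration of the series not given in the record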
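Reaction rates are the 30-min fluorescence difference (ex 525, em 598 nm) in wells containing 15 nM Sfp, 5 uM rhodamine-CoA and 12.5 uM BHQ-2-YbbR at pH 7.6 with 10 mM MgCl2.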
gsp agonist: qHTS for Agonist of gsp, the Etiologic Mutation Responsible for Fibrous Dysplasia/McCune-Albright Syndrome: qHTS | 340,000 tested, 0.13% active | AID 624287, 2012 | gsp mutant cells, cAMP HTRF, 30 min; control for the full effect not named in the record | Potency, µM (doses to about 76.9 µM), inactives show top-dose activation (cAMP increase), most hits filed as activators; active = well fitted activation curve with a large enough effect; inconclusive = small, poorly fitted or top-dose-only effect, or another doubt; inactive = no such curve, though single readings can be large or run the other way; cell line not stated here;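 note: phosphodiesterase inhibitor Ro 20-1724 added with compounds to block cAMP breakdown; potency is the fitted concentration of half-maximal effect; nearly all actives have a fitted effect of over 60% in size; about a fifth of the inactives were tested at one dose only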
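Cells stably selected in G418 were plated at 2000/well, grown 16-24 hr, then given compounds in DMSO with the PDE inhibitor […] (300 uM solution added) for 30 min at 37C; cAMP was read by HTRF.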
gsp antag: qHTS for Antagonists of gsp, the Etiologic Mutation Responsible for Fibrous Dysplasia/McCune-Albright Syndrome: qHTS; Potency, µM (doses to about 76.9 µM), without a hit: top-dose activity change, negative = inhibition, actives largely listed as inhibitors; 340,000 tested, 0.4% active; gsp-mutant cells, cAMP HTRF, 30 min; control for the full effect not named in the record; AID 624288, 2012; active = falling curve of any shape with a large fitted effect; inconclusive = falling curve, mostly with a smaller effect; inactive = flat or rising curve; cell line not stated here;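 note: intracellular cAMP measured with PDE inhibitor Ro 20-1724 present during compound exposure; potency is the fitted concentration of half-maximal effect; % is set by controls: 0 for no effect and ±100 for the full control effect; nearly all actives have a fitted effect of over 65% in size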
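Measurement of cellular cAMP by homogeneous time-resolved fluorescence following a 30 min compound exposure at 37C. The PDE inhibitor […] was present throughout; the assay buffer was DPBS with 0.05% BSA and 0.005% Tween 20.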
TRPML1 inh: qHTS for Inhibitors of the Human Mucolipin Transient Receptor Potential 1 (TRPML1). 390,000 tested, 0.02% active. TRPML1-inducible cells, Ca2+ dye fluorescence, FDSS; hits give low values; inhibition of EC80 agonist-evoked calcium signal. Mucolipin-1 (Homo sapiens), Q9GZU1. activity change, negative = inhibition, % (concentration not given with the values); in the data active means activity change below about -50%; inconclusive means about -30% to -50%; inactive means above about -30%;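 note: stimulus is agonist 54-4 at its EC80 concentration; % is set by controls: 0 for no effect and ±100 for the full control effect; compound concentration not given in the record; the text of the record puts the active cut at -80%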
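TRPML1-DL cells, Tet-induced overnight (~16 h, 37 °C) at 1,500 cells/well, were loaded with Ca8 no-wash dye plus quencher for 45-90 min at room temperature. Compounds were pinned during FDSS kinetic reading; agonist 54-4 at EC80 (4 uM final) then added.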
Menin-MLL FL inh: qHTS Assay for Inhibitors Targeting the Menin-MLL Interaction in MLL Related Leukemias: Competition With Fluorescein Labeled MLL-derived Peptide; FP activity change, % at 61.4 µM; 290,000 tested, under 10 active; Fluorescence polarization, fluorescein-MLL peptide displacement from menin; AID 1766, 2009; inconclusive = falling polarisation curve, or a change in total fluorescence; inactive = total fluorescence flat and polarisation flat or rising; no compound was filed as active; the % refers to the polarisation; negative = inhibition;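 note: % of control where 0% means no effect; inhibitors lower the polarisation; unlabelled MLL peptide was the positive control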
* hit, by the source's call; ? = inconclusive; . = not tested or not shown; & = joins results of further samples; [ ] = another dose, or the depositor's remark.

smiles	ClpP mod	TRPV1 PAM	Sfp inh	gsp agonist	gsp antag	TRPML1 inh	Menin-MLL FL inh
FC(F)(F)c1cccc(N2CCN(C(=S)NC3CCCCC3)CC2)c1	-0.4%	-7.2	4.6%	?	-22.3%	7.9	4.2
CCCCCCc1ccc(OCC(=O)O)cc1OCC(=O)O	-0.4%	?	14.3%	-28.5%	6.4%	-2.4	-0.1
CCOC(=O)C1=CN(C(=O)OC(C)(C)C)C(CN2C(=O)COCC2=O)C1 (stereo not given)	.	.	2.8%	.	.	15.3	2.3
O=C(NCCN1CCCCC1)/C(=N\O)c1ccccc1	-3.4%	-1.7	7.7%	9.3%	11.8%	-6.6	-0.8
COc1ccc(S(=O)(=O)N(C)CC(=O)Nc2ccc3c(c2)OCO3)cc1OC	0.2%	-16.3	12.6%	14.4%	7.8%	8.8	5.8
O=C1NCCN(CC2CCN(CC3CCCC3)CC2)C1=O	-3.1%	.	.	.	1.0%	42.6	.
O=[N+]([O-])c1cn(Cc2ccc(Cl)cc2)cn1	-1.3%	5.9	4.9%	-20.6%	5.5%	-10.8	1.0
COc1cc2c(cc1OC)C(COc1ccc([N+](=O)[O-])cc1)NCC2 (stereo not given)	-6.4%	-4.0	13.2%	?	?	2.8	-3.8
Cc1ccc(NC(=O)COCC(=O)Nc2ccc(C)cc2)cc1	-2.8%	-8.7	2.8%	-13.8%	-0.8%	2.4	-1.8
COc1ccc(CCNC(=O)c2nn(C)cc2Cl)cc1	0.5%	4.4	-0.2%	-9.8%	9.3%	-1.7	2.8
Cc1ccc(S(=O)(=O)N/N=C/c2cnn(C)c2C)cc1	1.2%	-8.1	10.9%	37.5%	-16.6%[15.4 µM]	-10.6	0.4
O=C(CSc1nnc(-c2cccnc2)n1Cc1ccco1)c1ccc(Cl)cc1	-1.0%	3.2	5.1%	20.9%	-2.0%	3.7	4.5
COc1ccc(C=Cc2ccc3ccccc3n2)c(OC)c1	4.0%	.	.	?	.	5.0	.
COc1ccc(CC(=O)NCCS(=O)(=O)N2CCN(c3ccccc3OC)CC2)cc1	2.5%	-1.7	.	-14.8%	-7.4%	25.0	.
CCOC(=O)NC(=O)/C(C#N)=N/Nc1c(F)cccc1F	-1.6%	3.8	15.2%	22.6%	-7.5%	-14.6	-0.1
C[C@@H]1CN([C@@H](C)CO)S(=O)(=O)c2ccc(Br)cc2O[C@H]1CN(C)Cc1ccncc1	-2.9%	.	.	?	.	15.6	.
COc1ccc(C(=O)Nc2cc([N+](=O)[O-])ccc2N2CCN(C)CC2)cc1	0.1%	-5.5	6.0%	23.6%	1.1%	-2.6	0.3
O=C(NCCCN1CCCC1)c1ccc(CSCc2cccc(Cl)c2)o1	-3.0%	25.0	-6.3%	3.5%	5.3%	-0.4	-0.2
O=S(=O)(Nc1nccs1)c1cnc(Cl)c(Br)c1	3.7%	3.8	50.1µM*	-19.5%	-8.6%	1.4	10.6
O=C(NNC(=O)c1ccc(NC(=O)c2ccccc2)cc1)c1ccccc1	.	-1.5	22.7%	-1.2%[15.4 µM]	7.9%	-8.0	-0.7
COc1cc(/C=N/NC(=O)C23CC4CC(CC(C4)C2)C3)cc(Br)c1O	-2.4%	0.3	-13.9%	2.2%[15.4 µM]	-24.6%	-3.8	-2.7
O=C(OC1C2C=CC1C1C(=O)NC21)c1ccccc1 (stereo not given)	-0.8%	.	.	?	.	2.1	.
COc1ccc(N2CCN(C(=O)[C@@H](NC(=O)c3ccccc3Cl)C(C)C)CC2)cc1	.	-0.3	21.9%	-5.3%[15.4 µM]	-0.5%	2.7	1.3
CC(C)(C)C(=O)NNC(=O)c1cc2sccc2s1	.	-5.7	9.7%	?	-10.2%	11.0	2.4
COc1ccc(CNC(=O)CC2C[C@H](C(=O)N(C(C)C)C(C)C)[C@@]3(C)c4[nH]c5ccccc5c4CCN3C2=O)cc1OC (stereo not given in full)	2.3%	.	.	.	1.4%	-10.1	.
Cc1nc(N2CCOCC2)nc2c1CCC2	.	-10.7	0.9%	12.6%	6.2%	-20.1	2.2
O=C(N/N=C/c1ccccn1)c1ccc(Cl)cc1	-0.2%	-33.2	31.6µM*	-34.5%[inhibitor]	2.3%	8.5	-4.3
Cc1cnc(C(=O)Nc2ccc(N3CCOCC3)cc2)cn1	-1.9%	-3.8	14.1%	-6.3%	-4.1%	-7.4	-0.2
CC1CCCCC1NC1=NCCCS1 (stereo not given)	.	0.8	27.7%	.	.	.	0.3
COc1cc(NC(=S)NCc2cccnc2)cc(OC)c1	1.2%	-10.3	?	6.7%	9.4%	9.3	5.8
Cc1nn(Cc2ccccc2)c(N)c1C#N	-1.2%	-18.1	6.1%	30.7%	1.9%	-9.9	4.6
CCc1ccc(N2CC34C=CC(O3)C(C(=O)OC)C4C2=O)cc1 (stereo not given)	0.2%	3.5	-4.3%	-47.3%[inhibitor]	4.0%	0.9	0.7
COc1ccc(NC(=O)C2CCC(CNc3c(N4CCC(C)CC4)c(=O)c3=O)CC2)cc1OC (stereo not given)	-0.4%	-8.9	4.6%	-0.9%	-0.1%&7.8%	14.4&2.7	-0.9
O=S(=O)(Nc1ccc(N2CCCCC2)cc1)c1ccc(F)cc1F	-2.5%	3.8	-24.5%	-0.5%[15.4 µM]	-6.3%	10.4	1.8
O=C(NCC1CCCO1)Nc1ccc(Cl)cc1 (stereo not given)	-0.7%	4.1	-10.2%	16.4%	-5.8%	17.0	2.4
O=C(Nc1ccc(F)cc1)c1ccc(S(=O)(=O)N2CCCC2)cc1	.	-9.2	4.2%	-7.5%[15.4 µM]	-3.9%	18.1	-4.9
CCCn1c(SCC(=O)NC2CC2)nnc1-c1cccs1	-3.1%	-1.8	32.3%[activator]	27.4%	11.8%	11.0	.
O=C(CSc1nnc2n1CCCN2)c1ccccc1	.	-16.0	?	?	-4.6%	3.6	2.2
O=C(NCc1csc(-c2cccs2)n1)Nc1ccc(C(F)(F)F)cc1	.	-12.9	-6.2%	18.5%[15.4 µM]	7.7%	-8.0	1.3
CCCNC(=O)COc1ccc(-c2nn(C)c(=O)c3ccccc23)cc1	2.1%	13.2	11.1%	13.3%[15.4 µM]	-21.9%	-15.5	2.2
O=C(c1ccco1)N1CCN(C(=O)C(Sc2ccccc2)c2ccccc2)CC1 (stereo not given)	-2.9%	.	-5.7%	7.0%	-21.8%	-14.7	3.6
CCOC(=O)C1CCCN(S(=O)(=O)c2ccc3ccccc3c2)C1 (stereo not given)	0.1%	-18.1	-3.3%	-20.8%	-0.3%	-3.3	.
C/C(N)=C(/C#N)C(=O)CSc1nnc(Nc2ccccc2C)s1	-7.2%	2.2	2.6%	6.3%	-8.3%	-10.2	3.9
COC(=O)CCC(=O)OC1(C)C(=O)C=C2C=C(C3CC3)N(Cc3ccccc3)C=C2C1=O (stereo not given)	-1.0%	-14.7	-1.7%&-24.8%	.	-5.5%	-6.3	-0.1[11.7 µM]
Cc1nn(-c2ccccc2)c(N)c1C(O)(C(F)(F)F)C(F)(F)F	-2.0%	3.5	9.1%	3.3%	5.6%	2.3	0.0
Cc1cc(C(=O)COC(=O)C23CC4CC(CC(O)(C4)C2)C3)c(C)n1C	0.0%	.	.	7.0%[15.4 µM]	2.8%	-7.7	.
CSc1nc(Cl)c(Cc2ccc(OC(C)C)cc2)c(N(C)C)n1	-1.9%	-0.4	0.4%	0.9%	-8.2%	3.0	2.9
CN(C)C(=O)CCc1ccc2c3c([nH]c2c1)[C@]1(C)[C@@H](C(=O)N2CCCCC2)C[C@H](CC(=O)NCc2cccc(C(F)(F)F)c2)C(=O)N1CC3	-1.0%	.	.	.	?	1.6	.
Cc1cc(NC(=O)COc2cccc([N+](=O)[O-])c2)no1	-1.8%	-12.8	-1.7%	-23.6%	8.7%	1.8	.
O=C1NC(=O)C2(CCCCCC2)N1	.	.	.	-1.1%	9.7%	7.2	.

Further compounds.
smiles	ClpP mod	TRPV1 PAM	Sfp inh	gsp agonist	gsp antag	TRPML1 inh	Menin-MLL FL inh
OCCCNCc1cccc2ccccc12	?	-3.5	3.6%	11.9%	1.6%	3.2	4.8
O=C(Nc1c(Cl)cccc1Cl)c1cc(=O)n(Cc2ccccc2)c(=O)[nH]1	-6.2%	14.1	5.1%	-34.2%[inhibitor]	5.8%	0.0	-1.8
Cc1cccc2c(=O)c(C(=O)NCc3cccs3)c[nH]c12	-5.1%	.	.	-7.1%	-0.7%	-10.9	.
COCCNC(=O)C(c1ccc(F)cc1)N(Cc1ccccc1)C(=O)CCC(=O)Nc1ccccn1 (stereo not given)	.	-4.7	12.5%	4.3%[15.4 µM]	2.2%	6.9	4.5
O=C(Cc1ccc(S(=O)(=O)N2CCCCC2)s1)Nc1cccc2ccccc12	-9.3%	11.9	9.7%	4.5%	2.2%	-8.3	.
COc1ccccc1-c1csc(Cc2nnc3n2CCCCC3)n1	?	-6.9	-7.3%	-3.9%	-4.6%	0.6	6.7
C=CCNC(=S)N1CCN(c2cccc(C(F)(F)F)c2)CC1	1.7%	4.4	27.2%	7.4%	-8.6%	45.6	6.8
C/C(=N\NC(=O)Cc1ccccc1)c1cccnc1	-3.3%	-0.9	4.7%	-17.5%	5.8%	-4.7	.
O=C1c2[nH]nc(-c3ccccc3O)c2C(c2ccc(F)cc2)N1CC1CCCO1 (stereo not given)	0.3%	-2.1	-0.4%	11.4%	-31.1%	-0.7	1.4
